Screening results (PubChem BioAssay)
miR-21 reporter: qHTS Assay for Modulators of miRNAs and/orActivators of miR-21; HeLa miR-21 FLuc reporter, luciferase, 48 h; Potency, µM (top dose mostly 38.3 µM), for inactives: top-dose reporter change, positive = more light; 340,000 tested, under 10 active; AID 2288, 2010; active = well fitted rising curve with a large enough effect; inconclusive = small, poorly fitted or top-dose-only effect; inactive = no such curve, though single readings can be large or run the other way;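 note: % of control where 0% means no effect; miR-21 action dims this reporter so a rising signal means less miR-21 action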
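Using DMEM plus 10% FBS, HeLa miR-21-FLuc cells are incubated with test compounds (final up to about 40uM) for 48 hours; firefly luciferase signal is then imaged following reagent-mediated lysis.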
GLA inh pH 4.5: qHTS Assay for Inhibitors of Human alpha-Galactosidase at pH 4.5 | purified enzyme, 4-MU-alpha-Gal fluorescence, pH 4.5 | activity change, negative = inhibition, % at 105 µM | 230,000 tested, under 10 active | AID 1467, 2008; inconclusive = small, poorly fitted or top-dose-only inhibition, or a rising curve; inactive = flat fitted curve, though single readings scatter; no compound was filed as active;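 note: 0% = full activity with enzyme and -100% = basal without enzyme; dose as in the result columns while the protocol names 77 µM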
Rango dissoc inh: qHTS Assay for Inhibitors of RanGTP induced Rango (Ran-regulated importin-beta cargo) - Importin beta complex dissociation; Biochemical FRET Rango-importin beta, RanGTP-induced dissociation; Potency, µM (top dose mostly 46.1 µM), without a hit: top-dose activity change, negative = inhibition; Snurportin-1 (Homo sapiens) + GTP-binding nuclear protein Ran (Homo sapiens) + Importin …; 0.071% of 340,000 active; active means falling FRET ratio curve, often poorly fitted, with flat reads before Ran was added; inconclusive means other falling curves, or compound fluorescence or quenching; inactive means flat or rising ratio curve;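 note: potency is the fitted concentration of half-maximal effect; % of control where 0% means no effect; nearly all actives have a fitted effect of over 45% in size; -100% = wells without RanGTP and RCC1; the record marks most hits as doubtful in a second field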
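Compounds preincubate 5 min with complex of recombinant Rango and importin beta in PBS with 1 mM DTT. Ran (0.6 uM) loaded with 2 mM GTP plus 0.2 uM RCC1 starts dissociation; FRET is recorded 45 min later.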
Rango complex inh: qHTS Assay for Inhibitors of Rango (Ran-regulated importin-beta cargo) - Importin beta complex formation; AID 540263, 2011; 0.031% of 340,000 active; Rango CFP/YFP FRET sensor + importin beta, 45 min; Potency, µM (doses to about 92.2 µM), for the others: at the top dose inhibition of complex formation; Importin subunit beta-1 (Homo sapiens), Q14974; active = rising FRET ratio curve, often small or poorly fitted; inconclusive = mostly compound fluorescence or quenching in the first reads; inactive = flat curves in all reads;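 note: potency is the fitted concentration of half-maximal effect; 0% = DMSO wells and 100% = buffer wells lacking importin beta; nearly all actives have a fitted effect of over 15% in size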
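Inhibition scored from the CFP 486 nm/YFP 530 nm FRET ratio 45 min after adding 0.125 microM importin beta to 50 nM Rango biosensor preincubated 5 min with compound (room temperature, PBS with DTT, Tween-20, BSA). No-importin wells as positive control.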
* = called active by the depositor; ? = inconclusive; & = joins results of further samples.

SMILES	miR-21 reporter	GLA inh pH 4.5	Rango dissoc inh	Rango complex inh
CC12CC3CC(C)(C1)CC(N)(C3)C2	0%	1&1	-10%&30%	1.6%&9.3%
CC[C@@H]1C(=O)OC[C@@H]1Cc1cncn1C	-3%&-6%&-3%	-1&7&-4&2&-4	?	-1.9%&0.6%

Only part of the results is shown; the hit share may differ from the screen's.
